HPGD block: qHTS Assay for Inhibitors of HPGD (15-Hydroxyprostaglandin Dehydrogenase); purified HPGD, NADH fluorescence kinetic, PGE2 substrate; Potency, µM, for the others: at the highest dose activity change, negative = inhibition, usual class: inhibitors; hit rate 4.3% among 150,000; active = well fitted inhibition curve with a large enough effect (not every such curve was filed as active); inconclusive = small, poorly fitted or top-dose-only effect, or another doubt; inactive = no such curve, though single readings can be large or run the other way;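 further: top concentration of the series not given in the record; plate controls included wells without enzyme; inactives centre near -10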
Target sequence (P15428 whole entry, looked up): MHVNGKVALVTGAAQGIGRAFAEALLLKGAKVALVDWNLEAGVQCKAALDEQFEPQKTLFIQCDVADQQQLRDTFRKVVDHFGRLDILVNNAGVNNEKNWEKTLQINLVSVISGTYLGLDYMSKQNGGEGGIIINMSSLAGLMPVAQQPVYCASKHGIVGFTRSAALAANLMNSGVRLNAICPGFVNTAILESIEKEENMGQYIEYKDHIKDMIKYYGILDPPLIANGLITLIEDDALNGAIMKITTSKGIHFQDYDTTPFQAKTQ
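NADH formation kinetics: reaction with 30 uM PGE2 and 1 mM NAD+ (final), 20 nM enzyme, Tris-HCl pH 8 with Tween 20, after 15 min compound preincubation at room temperature. Fluorescence change, last versus first of five reads.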
Numbers without * were called inactive. On the % scale 0 is the no-effect control and ±100 the full control effect; potency means the concentration at half of the fitted maximal effect.

CCOC(=O)CN(C(=O)CNC(=O)c1cccs1)C(C(=O)NC1CCCC1)c1cccnc1 (configuration not stated) was read as HPGD block -10%.
Cc1ccc2c(c1)C(=O)N(CCCCO)C2=O was read as HPGD block -1%.
Screening COc1ccc(-c2csc3nc(-c4cccnc4)nc(Cl)c23)cc1OC returned HPGD block inconclusive.
For CC(C)C[C@@H](CC(=O)N[C@H](CC(=O)N[C@@H]1CCNC[C@H]1C(=O)N[C@H](CC(=O)N[C@@H](CCC(=O)O)CC(=O)O)CC(C)C)C(C)C)NC(=O)[C@@H]1CNCC[C@H]1N the results were HPGD block -9%.
COc1ccc(NC(=O)C(CCSC)N2C(=O)c3ccccc3C2=O)cc1 (configuration not stated) was read as HPGD block -25%.
For COC(=O)c1sccc1N/N=C/c1cccc(OC)c1O the results were HPGD block -22%.
For O=C(/C=C/c1ccc(Cl)c(Cl)c1)N1CCc2ccccc21 the results were HPGD block -2%.
`Cc1ccccc1-c1cc2c(nn1)-c1ccccc1C2=O` gave HPGD block inconclusive.
Screening CC(=O)NCCOC(=O)Nc1ccncc1 returned HPGD block 3%.
COC(=O)Cn1cnc2c(C#N)c3n(c2c1=O)CCCCC3 was read as HPGD block 1%.
`Cc1cccc(NC(=S)N2CCC(c3nc4ccccc4o3)CC2)c1C` gave HPGD block -6%.
Screening CCn1c(COc2ccccc2)nnc1SCC(=O)NC1CCCCC1 returned HPGD block -28%.
For Cc1ccc(C)c(S(=O)(=O)N/N=C2/CCCc3ccccc32)c1 the results were HPGD block -15%.
For O=C(COC(=O)/C=C/c1nc2ccccc2s1)Nc1cccc(Cl)c1Cl the results were HPGD block inconclusive.
O=C(Nc1ccc2c(c1)OCO2)C1CCN(C(=O)CSc2ncnc3ccccc23)CC1 was read as HPGD block -26%.
For c1ccc2oc(CCc3nc4ccccc4o3)nc2c1 the results were HPGD block -6%.
`COC(=O)[C@@H]1C[C@@]2(O)[C@H](O)[C@H](O)[C@H](O)C[C@H]2N1Cc1ccc(-c2ccccc2)cc1` gave HPGD block -20%.
CC(=O)c1c(C)[nH]c(C(=O)Nc2cc(C)ccc2C)c1C was read as HPGD block -9%.
For Cc1ccc(NC(=O)C(CC(C)C)NC(N)=O)cc1Cl (configuration not stated) the results were HPGD block -4%.
c1ccc(CCCNc2ncccn2)cc1 was read as HPGD block inconclusive.
`O=C(Nc1ccc(F)cc1)C1CC(=O)n2c(nc3ccccc32)N1` (configuration not stated) gave HPGD block -5%.
`C=CC(=O)NC(NC(=O)C=C)c1ccc(Br)cc1` gave HPGD block 5%.
O=C(N(Cc1ccccc1)c1ccccn1)C12CC3CC(CC(C3)C1)C2 was read as HPGD block -16%.
`COc1cc(-c2nc(Cc3ccccc3Cl)no2)cc(OC)c1OC` gave HPGD block -20%.
Screening Cc1ccc(S(=O)(=O)N2CCCOC2CNC(=O)C(=O)NCc2ccncc2)cc1 (configuration not stated) returned HPGD block 3%.
For COCCSc1ccccc1C(=O)Nc1nnc(COC)s1 the results were HPGD block inconclusive.
For C=CCn1c(SCC(=O)NC(=O)NCCC)nnc1C1CCCCC1 the results were HPGD block -13%.
`Cc1sc(NC(=O)c2ccco2)c(C(=O)c2ccc(Cl)cc2)c1C` gave HPGD block -24%.
For Cc1cccc(CNc2cc(-c3ccoc3)ncn2)c1 the results were HPGD block 20µM*.
Fc1ccccc1OCCCN1CCOCC1 was read as HPGD block -7%.
For CNc1nc(C)cc(C)c1S(=O)(=O)c1ccc(Cl)cc1 the results were HPGD block inconclusive.
Screening COc1cc(CNc2cccc(F)c2)cc(Br)c1O returned HPGD block -11%.
`COc1ccc(CN(Cc2nc3ccccc3c(=O)[nH]2)C(=O)NC2CCCCC2)cc1` gave HPGD block -4%.
`O=C(CN1CCN(C(=O)N2CCOCC2)CC1)Nc1ccc(Br)cc1` gave HPGD block -7%.
Screening COc1ccc(/C=C2/C(=O)N(c3nc4ccccc4s3)N=C2CSc2ccc(Cl)cc2)cc1 returned HPGD block 14µM*.
CC(C)C(NC=C1C(=O)OC(C)(C)OC1=O)C(=O)O (configuration not stated) was read as HPGD block -7%.
`CC1=CC[C@@]2(CO)COC(c3ccccc3O)C1C2` (some centres not stated) gave HPGD block 0%.
`CCOc1ccc(/C=C/C2=Cc3c(sc(NC(=O)CSc4n[nH]c(N)n4)c3C#N)C(C)(C)C2)cc1` gave HPGD block inconclusive.
Cc1cc(C(=O)N2CCN(c3ccccc3)CC2)c(C)o1 was read as HPGD block -1%.
`CCOC(=O)c1c(C)[nH]c(C(=O)COc2ccc3c(c2)OCO3)c1C` gave HPGD block -6%.
Screening O=C(N/N=C/c1ccccn1)c1ccc(Br)cc1 returned HPGD block -19%.
For Cn1c(-c2cc3ccc(OC(=O)C(C)(C)C)cc3oc2=O)nc2ccccc21 the results were HPGD block inconclusive.
CCCNC(C)C(=O)Nc1ccccc1C (configuration not stated) was read as HPGD block inconclusive.
Cc1ccc(CNc2ccc(N3CCOCC3)cc2)s1 was read as HPGD block -4%.
For CCOC(=O)C1=C(CNCc2ccccc2Cl)NC(=O)NC1c1ccc2c(c1)OCO2 (configuration not stated) the results were HPGD block -2%.
`Cc1ccc(C(=O)c2cncc(Br)c2)cc1` gave HPGD block -15%.
Screening Cc1ccc(C(=O)NC2CCCCCC2)cc1N1CCCC1=O returned HPGD block -14%.
Screening CCOc1ccc(NC(=O)CSC(N)=O)cc1 returned HPGD block -16%.
COCCNC(=O)c1cc2c3ccccc3n(C)c2s1 was read as HPGD block inconclusive.
For COc1ccc(NC(=O)c2ccco2)cc1NC(=O)c1ccc(C)cc1 the results were HPGD block -10%.
For COc1ccccc1CNc1ncncc1-c1ccccc1CN(C)C the results were HPGD block -14%.
Cc1ccc(CN(C(=O)CNC(=O)c2cccs2)C(C(=O)NCC2CCCO2)c2ccccc2)cc1 (configuration not stated) was read as HPGD block -4%.
Screening FC(F)Sc1ccc(NC(=S)NCC2CCCCC2)cc1 returned HPGD block -25%.
CCOc1ccccc1CNC(=O)c1nn(CC)cc1[N+](=O)[O-] was read as HPGD block -13%.
`NS(=O)(=O)c1ccc(NC(=O)N[C@@H](Cc2ccccc2)C(=O)O)cc1` gave HPGD block -12%.
For COC(=O)Nc1nc(-c2ccccc2)c(C(=O)c2ccc(Cl)cc2)s1 the results were HPGD block -3%.
`O=C1OCCN1C(=O)[C@H]1[C@H](c2ccc(Cl)cc2)C(c2ccccc2)=NN1c1ccc(Br)cc1` gave HPGD block inconclusive.
`Cc1nc2ccc(Cl)cc2c(-c2ccccc2)c1CC(=O)O` gave HPGD block -1%.
Screening O=C(Cn1nc(-c2ccccc2)ccc1=O)NCc1ccc2c(c1)OCO2 returned HPGD block -15%.
Screening c1csc(CNc2ncnc3ccc(-c4ccc5c(c4)OCO5)cc23)c1 returned HPGD block inconclusive.
For COC(=O)c1ccc(C23CC4(C2)[C@H](CN(Cc2ccc(C(F)(F)F)cc2)[C@@H]4c2ccccc2)C3c2ccccc2)cc1 (some centres not stated) the results were HPGD block -9%.
`COc1ccc2[nH]c(=O)c(CN(CC3CCCO3)C(=O)Nc3ccc(F)cc3)cc2c1` (configuration not stated) gave HPGD block inconclusive.
`COc1ccc(S(=O)(=O)N(C)CC(=O)Nc2ccc3c(c2)OCO3)cc1` gave HPGD block -24%.
For CC(C)Oc1ccc(/C=N/NC(=O)C2CCCN2S(=O)(=O)c2ccc(Cl)cc2)cc1 (configuration not stated) the results were HPGD block -2%.
Nn1c(Cc2cccc3ccccc23)nnc1SCCOc1ccc(F)cc1 was read as HPGD block inconclusive.
`Cc1cccc(CNc2ccnc(-c3cccnc3)n2)c1` gave HPGD block inconclusive.
COC(=O)C1C2C=CC(C3CC23)C1C(=O)OCC(=O)c1ccccc1 (configuration not stated) was read as HPGD block -15%.
`CC(=O)Oc1ccc(Cl)cc1/C=C/c1cc(OC(C)=O)c2ccccc2n1` gave HPGD block inconclusive.
For Cc1cccc(-c2noc(CCCOc3ccc(Cl)cc3Cl)n2)c1 the results were HPGD block -13%.
For Cc1ccc(N2C(=O)CSC2c2ccccn2)cc1Cl (configuration not stated) the results were HPGD block -15%.
Screening CCN(CC)S(=O)(=O)c1ccc(NC2c3ccccc3C(=O)N2CCN2CCOCC2)cc1 (configuration not stated) returned HPGD block -11%.
`COC(=O)C1=C(O)CSC1=Nc1ccc(C)cc1` gave HPGD block -4%.
O=C1N(Cc2ccccc2F)c2ccccc2C12OCCCO2 was read as HPGD block -6%.
O=C(COC(=O)COc1ccc(Cl)cc1)Nc1ccc(F)c([N+](=O)[O-])c1 was read as HPGD block -20%.
For O=C(CN(c1ccc(Cl)cc1)S(=O)(=O)c1ccccc1)N/N=C/c1ccco1 the results were HPGD block inconclusive.

In the list so far, 2 have a cyano group:
COC(=O)Cn1cnc2c(C#N)c3n(c2c1=O)CCCCC3 was read as HPGD block 1%.
`CCOc1ccc(/C=C/C2=Cc3c(sc(NC(=O)CSc4n[nH]c(N)n4)c3C#N)C(C)(C)C2)cc1` gave HPGD block inconclusive.

Going on with the list.
Screening CC(NC(=O)COC(=O)Cc1ccc(-c2ccccc2)cc1)c1ccccc1 (configuration not stated) returned HPGD block 3%.
For CC(Sc1nc2cc([N+](=O)[O-])ccc2n1-c1cccc(C(F)(F)F)c1)C(=O)NC(N)=O (configuration not stated) the results were HPGD block -2%.
`COc1ccc(-c2nc(-c3ccccc3OC)no2)cc1OC` gave HPGD block inconclusive.
For CCOc1ccc(-n2ccnc2SCC(=O)Nc2nnc(C)s2)cc1 the results were HPGD block -9%.
Cc1c(NC(=O)/C(C#N)=C/c2cccs2)c(=O)n(-c2ccccc2)n1C was read as HPGD block -11%.
Screening COC(=O)C1=C(C(=O)OC)[C@@H]2N(C)c3ccc(OC)cc3[C@@]23C[C@@H](C(=O)OC)N(C(=O)c2cc(C)oc2C)C3=N1 returned HPGD block 7%.
Screening Cc1c(Cl)cccc1NC(=O)c1cc(-c2ccccc2O)n[nH]1 returned HPGD block 13µM*.
For CCOc1ccc(OCC)c(NC(=O)C(NS(=O)(=O)c2ccc3c(c2)oc(=O)n3C)C(C)C)c1 (configuration not stated) the results were HPGD block -5%.
For O=C(O)CCc1ccc(-c2cccs2)n1Cc1ccco1 the results were HPGD block inconclusive.
`CCOC(=O)/C=C1\SCC(=O)N1CC(=O)Nc1ccc(C(C)C)cc1` gave HPGD block -8%.
CCOc1ccc(C2CC(c3ccc(F)cc3)n3ncnc3N2)cc1 (configuration not stated) was read as HPGD block 2%.
For O=c1[nH]c2ccccc2nc1Cc1ccccc1 the results were HPGD block inconclusive.
For CCN(CC)C(=O)CSc1nnc(C2CCCCC2)o1 the results were HPGD block -25%.
For Nc1c(Cl)cc(Cl)cc1Cl the results were HPGD block -10%.
Screening COc1cc(/C=N/NC(=O)CCN2CCN(c3ccccc3)CC2)cc(OC)c1OC returned HPGD block -12%.
O=C(NCc1cccnc1)c1cccc2c1C(=O)N(Cc1cccnc1)C2 was read as HPGD block -9%.
Cc1ccc(/C=C/C(=O)OCC(=O)Nc2ccccc2Sc2ccccc2)cc1 was read as HPGD block inconclusive.
`Cc1ccc(NC(=S)Nc2ccc(Cl)c(Cl)c2)c(OC(F)F)c1` gave HPGD block -20%.
`CC1=Nc2nc(N3CCCCC3)c(C#N)c3c4c(nc(c23)N1)N(c1ccc(C(C)C)cc1)C(=O)C4` gave HPGD block inconclusive.
`O=C(Nc1ccc(Cl)cc1)[C@@H]1[C@@H]2C(=O)N(c3ccc(Cl)cc3)C(=O)[C@@H]2[C@H]2C=CC=NN21` gave HPGD block -8%.
For CC(C)C(=O)NC(=S)Nc1nnn(C)n1 the results were HPGD block 3%.
`Cc1ccc(NC(=S)N/N=C/c2ccc(Cl)c([N+](=O)[O-])c2)cc1` gave HPGD block 0%.
CC1(C)N=C(N)N=C(N)N1c1ccccc1 was read as HPGD block -1%.
Screening C[C@@]12CC(=O)NC1N(C(=O)c1cccc(C(F)(F)F)c1)C(c1ccccc1OC(=O)c1cccc(C(F)(F)F)c1)C2 (some centres not stated) returned HPGD block -16%.
Screening CCOC(=O)c1c(NC(=O)CSc2c[nH]c3ccccc23)sc2c1CCC2 returned HPGD block -13%.

Compounds shown so far that contain fluorine, in the order listed:
`O=C(Nc1ccc(F)cc1)C1CC(=O)n2c(nc3ccccc32)N1` (configuration not stated) gave HPGD block -5%.
Fc1ccccc1OCCCN1CCOCC1 was read as HPGD block -7%.
Screening COc1cc(CNc2cccc(F)c2)cc(Br)c1O returned HPGD block -11%.
Screening FC(F)Sc1ccc(NC(=S)NCC2CCCCC2)cc1 returned HPGD block -25%.
For COC(=O)c1ccc(C23CC4(C2)[C@H](CN(Cc2ccc(C(F)(F)F)cc2)[C@@H]4c2ccccc2)C3c2ccccc2)cc1 (some centres not stated) the results were HPGD block -9%.
`COc1ccc2[nH]c(=O)c(CN(CC3CCCO3)C(=O)Nc3ccc(F)cc3)cc2c1` (configuration not stated) gave HPGD block inconclusive.
Nn1c(Cc2cccc3ccccc23)nnc1SCCOc1ccc(F)cc1 was read as HPGD block inconclusive.
O=C1N(Cc2ccccc2F)c2ccccc2C12OCCCO2 was read as HPGD block -6%.
O=C(COC(=O)COc1ccc(Cl)cc1)Nc1ccc(F)c([N+](=O)[O-])c1 was read as HPGD block -20%.
For CC(Sc1nc2cc([N+](=O)[O-])ccc2n1-c1cccc(C(F)(F)F)c1)C(=O)NC(N)=O (configuration not stated) the results were HPGD block -2%.
CCOc1ccc(C2CC(c3ccc(F)cc3)n3ncnc3N2)cc1 (configuration not stated) was read as HPGD block 2%.
`Cc1ccc(NC(=S)Nc2ccc(Cl)c(Cl)c2)c(OC(F)F)c1` gave HPGD block -20%.
Screening C[C@@]12CC(=O)NC1N(C(=O)c1cccc(C(F)(F)F)c1)C(c1ccccc1OC(=O)c1cccc(C(F)(F)F)c1)C2 (some centres not stated) returned HPGD block -16%.

High-throughput results from PubChem BioAssay.

A portion of the library; count on the stated rates, not on these rows.
